Cruzain inh noDet – blocks cruzain activity in detergent-free assay; P25779; purified cruzain, Z-FR-AMC fluorescence, no detergent; Potency, µM, inactives show max response, negative = inhibition, usual class: inhibitors; 2.3% of 200,000 active;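 further: plate controls were enzyme without inhibitor for no effect and buffer without enzyme for full effect; nearly all actives have a fitted effect of over 40% in size; top concentration of the series not given in the record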
Target sequence (P25779 123-467 limits assumed): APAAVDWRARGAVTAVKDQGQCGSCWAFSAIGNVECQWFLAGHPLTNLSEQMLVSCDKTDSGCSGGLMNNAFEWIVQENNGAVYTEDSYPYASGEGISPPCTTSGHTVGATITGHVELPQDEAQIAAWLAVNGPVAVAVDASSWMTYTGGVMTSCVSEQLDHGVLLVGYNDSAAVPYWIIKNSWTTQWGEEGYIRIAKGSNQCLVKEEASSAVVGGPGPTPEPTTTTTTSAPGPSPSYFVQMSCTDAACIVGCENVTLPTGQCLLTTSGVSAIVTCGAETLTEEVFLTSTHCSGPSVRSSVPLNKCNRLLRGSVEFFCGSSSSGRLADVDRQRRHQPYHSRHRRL
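Detergent-free condition (0.00005% Triton X-100) in acetate buffer pH 5.5 with DTT. 1.5 nM enzyme and compound were pre-mixed 15 min, then 2 uM Z-FR-AMC substrate added; reaction progress from fluorescence change between first and third reads (60 s).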
Cruzain inh Det – cruzain (T. cruzi) inhibition with detergent | purified cruzain, Z-FR-AMC fluorescence, 0.01% Triton | Potency, µM, for the others: max response, negative = inhibition, most hits filed as inhibitors | 0.43% of 200,000 active;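 further: plate controls were neutral wells for no effect and buffer without enzyme for full effect; nearly all actives have a fitted effect of over 40% in size; top concentration of the series not given in the record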
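Enzyme 1.5 nM, Z-FR-AMC 2 uM, NaOAc 100 mM pH 5.5, DTT 5 mM, Triton X-100 0.01%; 15 min RT compound preincubation; kinetic ex360/em450, 60 s delta.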
RE007 growth inh – less growth of the S. pombe RE007 Vpr strain. S. pombe RE007 Vpr strain, BacTiter-Glo ATP luminescence, 24 h; control for the full effect not named in the record. Potency, µM (series often up to 92.2 µM), for the others: at the highest dose activity change, negative = less growth. 0.21% of 360,000 active; active = well fitted falling curve with a large enough effect; inconclusive = small, poorly fitted or top-dose-only effect; inactive = no such curve, though single readings can be large or run the other way;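 further: on the % scale 0 is the no-effect control and ±100 the full control effect; nearly all actives have a fitted effect of over 50% in size; the assay follows cell death caused by Vpr and the record does not say whether a fall means rescue or toxicity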
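Fission yeast strain RE007, carrying one chromosomally integrated HIV-1 vpr copy, was seeded at OD 0.01 in PMG+AL medium with 23 nL pinned compound. After 24 h at 30 °C and 99% humidity, viability was read by BacTiter-Glo luminescence.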
NS1 inh – inhibitors of influenza NS1 protein function; Potency, µM (highest dose often 46.1 µM), without a hit: top-dose activity, positive = more growth; 0.4% of 270,000 active; S. cerevisiae slowed by influenza A NS1, growth recovery by OD600; active means well fitted rising curve with a large enough effect; inconclusive means small, poorly fitted or top-dose-only effect; inactive means no such curve, though single readings can be large or run the other way; further: nearly all actives have a fitted effect of over 50% in size
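A cell-based growth assay was used: compounds that relieve NS1-induced slow growth of budding yeast raise OD600. Assay medium was yeast nitrogen base with ammonium sulphate and -URA supplement, pH 6.0, with 2% galactose.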
SARS PLpro yeast – blocks SARS-CoV papain-like protease in a yeast assay. S. cerevisiae expressing SARS-CoV PLpro, growth rescue; control for the full effect not named in the record. Potency, µM (top dose mostly 32.9 µM), inactives show at the top dose activity, positive = growth rescue. 0.19% of 330,000 active. AID 485353; active means well fitted rising curve with a large enough effect; inconclusive means small, poorly fitted or top-dose-only effect; inactive means no such curve, though single readings can be large or run the other way; further: 0% is about no effect; nearly all actives have a fitted effect of over 55% in size; growth read by luminescence after 48 h
Lassa entry inh – Lassa virus entry inhibition. Lassa virus pseudotype entry inhibition, cell reporter; control for the full effect not named in the record. Potency, µM (titrated, usually from 37.9 µM), inactives show at the top dose activity change, negative = inhibition, hits mostly inhibitors. 1.2% of 300,000 active; active means well fitted inhibition curve with a large enough effect; inconclusive means small, poorly fitted or top-dose-only effect, or effect the other way; inactive means flat fitted curve, though single readings scatter; tested in HEK293 cells; further: on the % scale 0 is the no-effect control and ±100 the full control effect; nearly all actives have a fitted effect of over 50% in size; luciferase read-out
Marburg entry inh – inhibitors of Marburg virus binding or cell entry; Marburg virus pseudotyped entry inhibition, cell reporter; control for the full effect not named in the record; about a third of the inactives were read at about 46 µM; 1.8% of 300,000 active; Potency, µM (highest dose often 37.8 µM), without a hit: at the top dose activity change, negative = inhibition, actives largely listed as inhibitors; AID 540276; active = well fitted inhibition curve with a large enough effect; inconclusive = small, poorly fitted or top-dose-only effect, or effect the other way; inactive = flat fitted curve, though single readings scatter; tested in HEK293 cells; about a fifth of its hits are not listed in these tables; further: on the % scale 0 is the no-effect control and ±100 the full control effect; luciferase read-out
StopGo reporter – lowers the luciferase signal of an FMDV 2A StopGo reporter | 1.2% of 410,000 active | human cells with a luciferase reporter of 2A StopGo recoding; control for the full effect not named in the record | AID 1159524 | Potency, µM (top dose mostly 57.9 µM), without a hit: at the highest dose signal change, negative = less light; active = well fitted falling curve with a large enough effect; inconclusive = small, poorly fitted or top-dose-only effect; inactive = no such curve, though single readings can be large or run the other way; tested in HEK293T cells; further: on the % scale 0 is the no-effect control and ±100 the full control effect; nearly all actives have a fitted effect of over 45% in size; luciferase light after 4 h
An asterisk follows results filed as active; ? = inconclusive; / = no result given; & = joins results of further samples; [ ] = another dose, or the depositor's remark. Unless noted, the call rests on the fitted dose curve; in most records, active means well fitted curve in the direction sought with a large enough effect; inconclusive means small, poorly fitted or top-dose-only effect, or another doubt; inactive means no such curve, though single readings can be large; an effect the other way counts as inactive or inconclusive. Potency means the concentration at half of the fitted maximal effect.

compound | StopGo reporter | Lassa entry inh | NS1 inh | Cruzain inh noDet | Cruzain inh Det | RE007 growth inh | Marburg entry inh | SARS PLpro yeast
CCNC(=O)C1CC(=O)N(Cc2ccc3c(c2)OCO3)C(=Nc2ccc(F)cc2)S1 (configuration not stated) | / | -7% | 1% | -1% | 4.2% | 5% | -2%&-15% | -1%
Cn1c(C(=O)O)c(CC(=O)Nc2ccc(F)cc2F)c2ccccc21 | -24% | -8% | 9% | -2% | 1.8% | 2% | -1% | -4%
O=C(CCCc1ccccc1)NC12CC3CC(CC(C3)C1)C2 | 34%[activator] | / | -48% | / | / | 5% | / | -1%
FC(F)(F)c1cnc(Nc2ccc(N3CCOCC3)cc2)c(Cl)c1 | -9% | 1% | -10% | 7% | -0.5% | -21% | 25% | -5%
COC(=O)c1ccccc1NC(=O)Cn1c(=O)n(-c2ccc(Cl)cc2)c(=O)c2c(C)c(C)sc21 | -4% | ? | / | 6% | 0.3% | / | ? | /
CCOc1ccc(-n2c(SCC(=O)NC)nnc2-c2ccco2)cc1 | -10% | 1% | -2% | / | / | -7% | -3% | -3%
Cc1cc(C)n2c(SCC(=O)Nc3ccccc3)nnc2n1 | 1% | / | 5% | 10% | -0.2% | 8% | / | 2%
Cc1ccc(S(=O)(=O)N2C(=O)CCC2C(N)=O)cc1 (configuration not stated) | -10% | / | 4% | / | / | 6% | / | 0%
OCCNCCCCOc1cccc(Br)c1 | -6% | ? | -8% | -23% | -9.7% | -4% | ? | 7%
COc1ccc(Cn2nc(C)n(N(C)c3ncc(C(F)(F)F)cc3Cl)c2=O)cc1 | -25% | 2% | -2% | ? | 2.1% | 0% | -18% | 6%
COc1ccc(NC(=O)CN(C)C(=O)c2ccc(N3CCOCC3)c([N+](=O)[O-])c2)cc1 | -8% | -14% | / | / | / | 5% | 28% | 2%
COc1cc(NS(=O)(=O)c2ccc(N/C=C(\C#N)c3nc4cc(Cl)ccc4o3)cc2)nc(OC)n1 | ? | ? | -13% | ? | -3.1% | 23% | ? | -5%
COc1ccccc1NC(=S)N(Cc1ccc(Cl)cc1)CC1CCC(C(=O)O)CC1 (configuration not stated) | -19% | 3% | / | / | / | 3% | 2% | 3%
CCOC(=O)c1sc(NC(=O)Cn2nnc3sc4c(c3c2=O)CCCC4)nc1C | 5% | ? | 14% | 6% | -12% | 13% | 17% | -6%
O=C(O)CN1CCN(Cc2ccc(F)cc2)C1=O | -8% | 19%[46.1 µM] | 0% | / | / | 5% | 24%[46.1 µM] | 0%
O=C(NCCOc1ccccc1)c1cc(S(=O)(=O)N2CCOCC2)ccc1F | -4% | / | -5% | / | / | -12% | / | -1%
Cc1cc(C)cc(-n2ccnc2SCC(=O)O)c1 | -7% | 7% | 7% | / | / | -13% | 9% | 0%
CC1CCCCC1NC(=O)COC(=O)c1ccccc1NC(=O)c1ccco1 (configuration not stated) | -18% | -24% | 8% | -1% | 2.5% | 10% | 14% | -1%
COc1ccc(N(CC(=O)Nc2ccccc2C(=O)N2CCOCC2)S(=O)(=O)c2ccc(F)cc2)cc1 | ? | 19% | -14% | ? | -2.5% | 23% | 12% | 15%
COc1ccc(-c2csc(NC(=O)CCS(=O)(=O)c3ccccc3)n2)c(OC)c1 | -8% | / | -5% | / | / | 3% | / | 2%
CCOC(=O)c1ccc[n+](C(C)C(=O)c2ccc(-c3ccccc3)cc2)c1 (configuration not stated) | ? | 2% | -3% | -9% | -18% | -1% | 10% | -15%
CN(C)/C=C/c1c(C#N)c(=O)ncn1Cc1ccccc1 | -1% | -16% | 1% | -4% | -2.7% | -2%[3.69 µM] | -5% | 1%
O=[N+]([O-])c1cc(C(F)(F)F)ccc1NCCc1ccncc1 | -21% | 5%[46.1 µM] | -5% | / | / | 38% | -8%[46.1 µM] | -3%
COc1cc(OC)cc(-c2cc3nc(C4CCN(C(=O)OC(C)(C)C)CC4)cc(=O)n3[nH]2)c1 | / | 1% | 4% | 23% | -3.3% | 0% | 26% | -10%
O=C(CCS(=O)(=O)c1ccccc1)Nc1nnc(-c2ccco2)o1 | 0% | 2%[46.1 µM] | 5% | / | / | -13% | 2%[46.1 µM] | -4%
O=C1CCCc2c1nn(-c1ccccc1)[n+]2[O-] | -5% | 2% | -5% | -3% | 1.2% | -3% | -5% | -7%
CCCS(=O)(=O)c1c(S(=O)(=O)CCC)c2c(N)cccn2c1C(=O)c1ccccc1 | 1% | 0% | 18% | 0% | -7.2% | 12% | ? | 1%
CCOC(=O)c1c(S(=O)(=O)NCC(=O)Nc2cccc(C)c2)c(C)n(C)c1C | 0% | / | 14% | / | / | -3% | / | 0%
CCOC(=O)CSc1nc2ccc(NC(=O)c3ccc(Cl)cc3)cc2s1 | 2% | 19%[46.1 µM] | / | -1% | -9.4% | / | 10%[46.1 µM] | /
COc1ccc(OCCOC(=O)CNC(=O)c2ccc(C)cc2)cc1 | 4% | 4% | / | / | / | 2% | 1% | ?

Four of these compounds, reformatted:
Each structure is followed by: StopGo reporter | Lassa entry inh | NS1 inh | Cruzain inh noDet | Cruzain inh Det | RE007 growth inh | Marburg entry inh | SARS PLpro yeast
O=C(NCCOc1ccccc1)c1cc(S(=O)(=O)N2CCOCC2)ccc1F
    -4% | / | -5% | / | / | -12% | / | -1%
Cc1cc(C)cc(-n2ccnc2SCC(=O)O)c1
    -7% | 7% | 7% | / | / | -13% | 9% | 0%
CC1CCCCC1NC(=O)COC(=O)c1ccccc1NC(=O)c1ccco1 (configuration not stated)
    -18% | -24% | 8% | -1% | 2.5% | 10% | 14% | -1%
COc1ccc(N(CC(=O)Nc2ccccc2C(=O)N2CCOCC2)S(=O)(=O)c2ccc(F)cc2)cc1
    ? | 19% | -14% | ? | -2.5% | 23% | 12% | 15%

(next part)
compound | StopGo reporter | Lassa entry inh | NS1 inh | Cruzain inh noDet | Cruzain inh Det | RE007 growth inh | Marburg entry inh | SARS PLpro yeast
O=C(O)c1cccc(NC(=O)c2cn(-c3ccccc3)nc2-c2ccc([N+](=O)[O-])cc2)c1 | -6% | / | -1% | / | / | -1% | / | 2%
CSCCC(NC(=O)c1ccccc1)c1nc(-c2ccccc2)no1 (configuration not stated) | / | / | -1% | 9% | 3.9% | / | -8% | 1%
CCOC(=O)c1sc(NC(=O)/C=C/c2cnn(C)c2C)c(C(=O)OC(C)C)c1C | 19% | -2% | 6% | 18% | -14% | 9% | -17% | -6%
CC(=O)NC(C)C(=O)OCc1ccc(Cl)cc1Cl (configuration not stated) | 1% | 5% | -2% | 1% | -2.1% | 23% | 5% | -3%
Cc1ccc(CNC(=O)c2cc(S(=O)(=O)N3CCOCC3)cn2C)cc1 | -10% | / | 0% | / | / | -6% | / | 2%
CCOc1ccc(N2CC(NS(=O)(=O)c3cccnc3)CC2=O)cc1 (configuration not stated) | -8% | -5% | / | / | / | 1% | -7% | 2%
O=C(CSCc1ccccc1Cl)N1CCN(c2ccc(F)cc2)CC1 | -5% | 10%[46.1 µM] | / | 9% | -0.3% | / | / | /
CC(C)(C)c1ccc(C(=O)NC(=S)NCc2ccco2)cc1 | 16% | / | -38% | / | / | -16% | / | 2%
CC(CN1CCCCC1)NC(=O)c1cc(-c2ccccn2)nc2ccc(Cl)cc12 (configuration not stated) | -10% | 10% | 5% | / | / | 12% | ? | -1%
CC(C)(C)NNC(=S)Nc1ccc(S(=O)(=O)N2CCOCC2)cc1 | -5% | -5%[46.1 µM] | / | / | / | -1% | -8% | 0%
CCCCN(C(=O)c1ccco1)c1nnc(-c2cc(OC)c(OC)c(OC)c2)s1 | -14% | -4% | -3% | ? | -6.3% | 7% | ? | 3%
CC(C)(C)c1[nH]ncc1[N+](=O)[O-] | -16% | 15% | / | / | / | 0% | 3%[46.1 µM] | -4%
O=C(N/N=C/c1ccco1)C1CC1(c1ccccc1)c1ccccc1 (configuration not stated) | -13% | 22% | 17% | 17% | -6.7% | 4% | 0% | -38%
CC(C)CCOc1ccc(C(=O)NCC2OCCc3ccccc32)cc1 (configuration not stated) | -16% | 4%[46.1 µM] | / | -2% | -2.0% | / | 6%[46.1 µM] | /
O=C1NCCCC1C(=O)Nc1ccccn1 (configuration not stated) | -24% | 22% | 0% | 2% | -7.0% | -16% | 3%[46.1 µM] | 5%
CCNC(=S)NCc1ccc(F)cc1 | -6% | 4% | 8% | 6% | -1.8% | -1% | 3% | -16%
Cc1noc(C)c1CSCC(=O)Nc1cc(Cl)ccc1N1CCCCC1 | 0% | ? | / | / | / | -9% | ? | -2%
CC(=O)N/C(=C/c1ccc2c(c1)OCO2)C(=O)NCc1ccccc1 | 25% | 23% | 0% | / | / | -19% | 5%[46.1 µM] | -1%
COc1ccccc1-n1nc(C(=O)NCc2ccco2)c2ccccc2c1=O | -26% | -19% | -10% | 10% | 1.5% | 26% | 12% | 0%
COc1ccc(N(C(=O)c2cccc(C)c2)S(=O)(=O)c2ccc3c(c2)n(C)c(=O)n3C)cc1 | 0.028µM* | ? | / | ? | -4.7% | / | -27%[46.1 µM] | /
CCC1=C(OC(=O)N(CC)CC)N2C(=O)OC(=NCC3CC3)[C@]2(Cc2ccccc2)[C@H]2C1=CC[C@H]1C(=O)N(C)C(=O)[C@H]12 | -6% | / | -11% | ? | -2.5% | -2% | / | 1%
CNC(=O)CSc1nnc(COc2ccc([N+](=O)[O-])cc2)n1C | 0% | 3% | / | / | / | 0% | ? | 1%
CCCc1cc(C(=O)Cc2ccc(C(=O)OCC)o2)c(O)cc1O | -6% | -28% | -84% | -16% | -16% | -4% | 11% | -26%
CCOC(=O)C1=C(C)OC(N)=C(C#N)C1c1cc(C)sc1C (configuration not stated) | -7% | 0% | 3% | -5% | -3.1% | 4% | 2% | 4%
Cc1ccc(NC(=O)CSCC(=O)N2c3ccccc3CCc3ccccc32)cc1 | / | -21% | -7% | ? | -1.7% | 9% | ? | 1%

High-throughput results: PubChem BioAssay, National Center for Advancing Translational Sciences (NCATS)
